PABP polyA inh – blocks human PABP binding to poly(A) RNA; inhibition, % at 35 µM; 290,000 tested, 1% active; AID 2014; P11940; fluorescence polarization;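 active = 50% or more with normal probe brightness, or confirmed in later tests; about a fifth of its hits are not listed in these tables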;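 also: calls also rest on retests at 20 µM and on dose response follow-up; controls were probe without protein and protein plus probe with vehicle; some compounds called inactive have numbers as strong as hits; many hits fall short of the cut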
Target sequence (P11940 whole entry, looked up): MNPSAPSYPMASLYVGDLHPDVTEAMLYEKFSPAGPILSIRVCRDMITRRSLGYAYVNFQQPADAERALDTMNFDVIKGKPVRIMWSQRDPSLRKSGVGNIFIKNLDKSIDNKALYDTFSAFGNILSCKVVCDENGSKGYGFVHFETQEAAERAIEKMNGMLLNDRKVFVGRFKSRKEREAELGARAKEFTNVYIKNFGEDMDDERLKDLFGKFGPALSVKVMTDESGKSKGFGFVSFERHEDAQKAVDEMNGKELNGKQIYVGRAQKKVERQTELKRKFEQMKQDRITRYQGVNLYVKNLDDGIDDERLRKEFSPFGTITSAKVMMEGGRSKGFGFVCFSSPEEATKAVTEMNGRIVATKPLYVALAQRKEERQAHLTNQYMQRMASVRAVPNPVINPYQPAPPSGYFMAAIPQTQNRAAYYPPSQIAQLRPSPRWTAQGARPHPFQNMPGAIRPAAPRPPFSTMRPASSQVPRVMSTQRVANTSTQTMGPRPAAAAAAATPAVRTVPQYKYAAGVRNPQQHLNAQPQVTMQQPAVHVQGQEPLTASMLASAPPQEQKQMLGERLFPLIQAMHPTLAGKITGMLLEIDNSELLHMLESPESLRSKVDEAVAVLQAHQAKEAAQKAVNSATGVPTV
CSC inhib – cancer stem cell inhibition | cancer stem cell-like cells viability, luminescence | 300,000 tested, 1.1% active | inhibition, % at 7.5 µM | AID 2717;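 active = mean at 75% or more and at least half the replicates too; tested in HMLE shEcad cells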;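 also: 0% = median of negative and 100% = median of positive control wells; the first replicate is given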
UUG fidelity – modulators of start codon recognition fidelity in yeast; S. cerevisiae UUG-firefly luciferase reporter, luminescence/redox ratio; activity score, % at 18.7 µM; 350,000 tested, 0.13% active; AID 602363;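 active = replicate mean at a twofold rise or more, about +100% in these data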;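 also: firefly luciferase made from a UUG start codon reports start codon fidelity; reporter light over untreated wells divided by growth signal over untreated wells; some hits fall short of that in this replicate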
Rce1 inhib – yeast Ras-converting enzyme inhibition | Q03530 | AID 2563 | calls only | 290,000 tested, 0.27% active | yeast membranes, quenched prenylated peptide cleavage fluorescence;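 active = fall in fluorescence gain of 50% or more versus controls, with final raw signal at or below 3038400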;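 also: plate controls were neutral control wells for no effect and wells lacking membranes for full effect; tested at 10 µM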
Target sequence (Q03530 whole entry, looked up): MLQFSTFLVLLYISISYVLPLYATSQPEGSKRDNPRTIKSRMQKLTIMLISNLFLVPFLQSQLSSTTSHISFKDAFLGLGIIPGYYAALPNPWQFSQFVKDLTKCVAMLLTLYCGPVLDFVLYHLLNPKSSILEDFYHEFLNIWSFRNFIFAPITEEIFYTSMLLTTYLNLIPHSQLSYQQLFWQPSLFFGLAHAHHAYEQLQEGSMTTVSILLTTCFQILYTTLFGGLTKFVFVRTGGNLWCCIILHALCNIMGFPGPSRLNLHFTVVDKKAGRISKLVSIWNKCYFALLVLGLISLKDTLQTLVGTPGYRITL
MT1-MMP act inh – MT1-MMP (human) activation inhibition; GFP/RFP ratio change, % at 20 µM; AID 651647; HT1080 RFP-PRO-GFP cells, GFP/RFP ratio fluorescence, overnight; percent of plate control window, DMSO zero; 360,000 tested, 0.061% active;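 active = GFP/RFP ratio change of at least 30% with cell ATP level not reduced by more than half and red fluorescence within 50% of control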; also: strong numbers were not always called active
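Assay system – RFP-PRO-GFP reporter HT1080 cells · Compound dosing – single dose of 20 µM compound, 1% DMSO final · Incubation – overnight compound exposure at 37 °C · Measure – GFP/RFP fluorescence ratio · Benchmarks – DMSO wells and RFP-L50D-GFP cells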
eIF4H inh – inhibitors of RNA binding by human eIF4H; Q15056; eIF4H fluorescence polarization binding assay; inhibition, % at 35 µM; 290,000 tested, 0.94% active; AID 2012;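 active = 50% or more with normal probe brightness, or confirmed in later tests; about a fifth of its hits are not listed in these tables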;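 also: calls also rest on retests at 20 µM and on dose response follow-up; 0% = protein and probe with vehicle and 100% = probe without protein; strong numbers were not always called active; many hits fall short of the cut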
Env fusion inh – blocks HIV Env-driven cell-cell fusion; AID 651610; HeLa-JRFL Env/CEM21 cell fusion, luciferase; 360,000 tested, 1.1% active; inhibition, % at 12.3 µM;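 active = mean replicate inhibition score of at least 50 and every replicate individually at or above 50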;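 also: 0% = plate neutral controls and 100% = maraviroc near 300 nM; one replicate is shown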
eIF4H inh retest – second read-out of eIF4H inh, no call of its own (marks repeat the call); inhibition, %; compound at 20 µM; confirmation average;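 mean of two retest wells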
PABP polyA inh retest – recorded beside PABP polyA inh, whose call it bears; inhibition, %; compound at 20 µM; confirmation repeats;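 mean of two retest wells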
MT1-MMP act inh RFP – also measured in MT1-MMP act inh; calls as there; RFP signal change, %; measured here: RFP expression control read;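 0 = vehicle wells; hits needed this value within 50% of zero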
An asterisk follows results filed as active; i = inactive; / = not tested or not shown.

SMILES	PABP polyA inh	CSC inhib	UUG fidelity	Rce1 inhib	MT1-MMP act inh	MT1-MMP act inh RFP	eIF4H inh	Env fusion inh	others
COc1ccc(OC)c(CN2CCN(c3ccccc3OC)CC2)c1	9	-5	-9	i	1	-1	3	-27
CCOC(=O)c1cc2occc2n1CC(=O)NCCOC	16	-6	-7	i	0	2	14	/
CCOC(=O)C1=C(Nc2ccc(OC)cc2)OCC1=O	5	4	/	i	0	0	-6	-9
COc1ccc(-c2cc(C(=O)Nc3cc(Cl)ccc3OC)no2)cc1	-9	-8	-3	i	2	3	-5	1
Cc1ccc(C)c(OCC(O)CN2CCc3ccccc3C2)c1C (stereo unspecified)	-6	25	20	i	-6	1	-2	13
CCOC(=O)N1CCN(C(=O)C2CCC(=O)N(Cc3ccc(Cl)cc3)C2)CC1 (stereo unspecified)	7	-27	7	i	3	5	1	/
COC(=O)c1cc(S(=O)(=O)NCCCc2ccco2)c[nH]1	10	-4	-22	i	1	-2	-5	5
O=C(CCN1C(=O)C2CC=CCC2C1=O)Nc1cccc(Cl)c1 (stereo unspecified)	3	-13	-2	i	4	5	-4	6
COc1cccc(CC(=O)Nc2nc3c(s2)C(=O)CC(C)(C)C3)c1	-3	15	-10	i	-1	-5	-6	2
O=C(C=Cc1ccc2c(c1)OCO2)C=Cc1ccc2c(c1)OCO2	/	/	-17	/	1	2	/	-10
C=CCN1C(=O)/C(=c2\sc3nc(=O)c(Cc4ccccc4Cl)nn3c2=O)c2ccccc21	6	21	-20	i	3	0	-12	7
CN1CCN(c2ccccc2NC(=O)COc2ccc(Br)cc2)CC1	-9	-11	-12	i	-8	-3	2	31

Part of the list above in order of molar mass, rising.
SMILES	PABP polyA inh	CSC inhib	UUG fidelity	Rce1 inhib	MT1-MMP act inh	MT1-MMP act inh RFP	eIF4H inh	Env fusion inh	others
CCOC(=O)C1=C(Nc2ccc(OC)cc2)OCC1=O	5	4	/	i	0	0	-6	-9
O=C(C=Cc1ccc2c(c1)OCO2)C=Cc1ccc2c(c1)OCO2	/	/	-17	/	1	2	/	-10
CCOC(=O)N1CCN(C(=O)C2CCC(=O)N(Cc3ccc(Cl)cc3)C2)CC1 (stereo unspecified)	7	-27	7	i	3	5	1	/

(cont.)
SMILES	PABP polyA inh	CSC inhib	UUG fidelity	Rce1 inhib	MT1-MMP act inh	MT1-MMP act inh RFP	eIF4H inh	Env fusion inh	others
O=C(NC(=S)Nc1cccc(CO)c1)c1ccc(-c2ccccc2)cc1	6	16	/	i	1	-7	-9	-22
N/C(CSc1ccc(Cl)cc1)=N\S(=O)(=O)c1ccc(Cl)cc1	1	16	/	i	3	0	0	38
COc1ccccc1CN(C)C(=O)CN1CCN(S(=O)(=O)c2ccc3c(c2)OCCCO3)CC1	/	/	6	/	-1	-5	/	38
Cc1cccc2cc(CN(Cc3ccc(F)cc3)C(=O)N(C)C)c3nnnn3c12	-4	-19	-23	i	6	-6	-2	4
CCCOc1ccc(CNCCCOCC)cc1OC	-5	-6	-16	i	-1	-9	0	13
CC(=O)Nc1ccc(OCC(O)Cn2c3ccccc3c3ccccc32)c(C)c1 (stereo unspecified)	-3	78*	-9	i	-11	-18	-14	/
COc1ccc(S(=O)(=O)N2CC=C(C(=O)Nc3ccc(NC(C)=O)cc3)CC2)cc1	63	-1	/	i	1	4	0	5	eIF4H inh retest=-6;PABP polyA inh retest=2
Cc1ccc(Cl)cc1NC(=O)CNC(=O)N1CC(=O)Nc2ccccc21	2	-8	-19	i	5	6	6	-11
Nc1ccc2oc3ccc(N)cc3c(=O)c2c1	60*	7	-18	i	10	3	79*	/
CSc1ccccc1NC(=O)CN(C)CC(=O)Nc1cccc(Br)c1	33	4	5	i	-1	-5	0	23
Cc1ccc(C)c(NC(NC(=O)c2ccccn2)C(Cl)(Cl)Cl)c1 (stereo unspecified)	-10	-4	/	i	-3	-3	-5	-2
COc1cc(C)c(S(=O)(=O)N2CCN=C2c2ccccc2)cc1C	6	7	/	i	-3	0	0	0

Random excerpt: 3 records from the list
SMILES	PABP polyA inh	CSC inhib	UUG fidelity	Rce1 inhib	MT1-MMP act inh	MT1-MMP act inh RFP	eIF4H inh	Env fusion inh	others
COc1cccc(CC(=O)Nc2nc3c(s2)C(=O)CC(C)(C)C3)c1	-3	15	-10	i	-1	-5	-6	2
Nc1ccc2oc3ccc(N)cc3c(=O)c2c1	60*	7	-18	i	10	3	79*	/
CN1CCN(c2ccccc2NC(=O)COc2ccc(Br)cc2)CC1	-9	-11	-12	i	-8	-3	2	31

(more compounds)
SMILES	PABP polyA inh	CSC inhib	UUG fidelity	Rce1 inhib	MT1-MMP act inh	MT1-MMP act inh RFP	eIF4H inh	Env fusion inh	others
C/C(=C\C(=O)Nc1cc(C)on1)c1ccccc1	-14	/	4	i	0	1	6	-102
CCOC(=O)N1CCN(C(=O)c2ccccc2CCc2ccccc2)CC1	7	2	22	i	0	3	5	/
O=C1CC(c2ccccc2)=Nc2ccccc2N1	0	6	-8	i	-1	1	-2	/
CC1(NC(=S)NCCO)CCS(=O)(=O)C1 (stereo unspecified)	-8	-3	/	i	1	2	2	-14
COc1ccc(NC(=O)N/C=C/c2ccc(Cl)cc2)cc1	-2	-13	-8	i	6	3	-4	-11
CC(Oc1cc2oc(=O)c3c(c2cc1Cl)CCC3)C(=O)NC1CC(C)(C)NC(C)(C)C1 (stereo unspecified)	/	-18	-2	i	2	1	/	-9
Cc1ccc(NC(=O)CCS(=O)(=O)c2cccc3nonc23)c(Cl)c1	-8	2	-12	i	1	3	-6	0
COc1cc(/C=N\Nc2cc(=O)n(C)c(=O)n2C)ccc1O	-6	-19	/	i	5	5	10	/
COc1ccc(C)cc1-n1nnnc1SC/C(O)=C(\C#N)c1nc2ccccc2[nH]1	4	12	-19	/	-12	-1	-8	-52
Cc1ccccc1C(=O)N[C@H](C(=O)OCC(=O)NC1CC1)C(C)C	/	-16	-2	/	1	2	/	/
Cc1cc2c(=O)n(C)c(SCC(=O)Nc3ccccc3C)nc2s1	/	-5	/	i	7	-11	/	1
CCOc1ccccc1-n1nnnc1SCC(=O)NC(=O)Nc1ccc2c(c1)OCCO2	-8	-7	/	i	-4	-2	2	/
COc1ccc(/C=C2\SC(=O)N(CCNC(=O)CCS(=O)(=O)c3ccc(C)cc3)C2=O)cc1	2	7	/	i	-1	-8	1	/
CCN(CC(=O)NCc1cccs1)C(=O)c1cccc(S(=O)(=O)NCc2ccccc2)c1	/	/	4	i	1	1	/	-1
Fc1ccccc1CSc1nc2ncccc2[nH]1	8	0	-41	i	0	0	8	/
CCOc1ncccc1C(=O)OCC(=O)NCCc1ccc(S(N)(=O)=O)cc1	/	1	-12	/	-4	2	/	9
Cc1cc(C)cc(N(C(C)C(=O)NCCC2=CCCCC2)S(C)(=O)=O)c1 (stereo unspecified)	1	/	0	i	-4	-1	6	/
Clc1ccc(Cn2ncc3c(N4CCOCC4)ncnc32)cc1	-4	-4	-11	i	-2	-4	2	/
Cc1ccc(CCN2CC(C(=O)O)CC2=O)cc1 (stereo unspecified)	2	-8	2	i	1	5	-10	/
CCN(CC)S(=O)(=O)c1ccc(C(=O)NCc2n[nH]c(=S)n2-c2ccccc2OC)cc1	-4	-20	12	i	-2	1	-7	/
O=C(COC(=O)c1cccc(-n2cnnn2)c1)c1ccc(F)c(F)c1	/	/	1	/	-1	0	/	-13
S=C(NCc1ccc2[nH]c3c(c2c1)CCCC3)Nc1ccccc1	28	/	-28	i	-1	-7	8	-32
O=C(CCNc1cccc(F)c1)c1cccc([N+](=O)[O-])c1	3	4	/	i	2	2	1	26
CCC1CCCCN1CCCNC(=O)c1ccc(N2CCOCC2)c(NS(=O)(=O)c2ccc(OC)cc2)c1 (stereo unspecified)	4	-2	/	i	-1	3	0	3
COc1cc(C(=O)N2CCC(NC(=O)C(Cc3ccccc3C)NC(C)=O)CC2)cc(OC)c1OC (stereo unspecified)	0	15	/	i	1	6	0	-27
COc1ccc(CNC(=O)CSc2nnc(C)s2)cc1	-4	-12	11	i	-2	2	6	-22
COc1ccc(-c2noc3c2-c2nc(-c4ccccc4)sc2CC3)cc1	/	58	-2	i	-3	0	/	-7
NC(=O)Cn1cnc(-c2ccccc2)c1	-13	-6	-9	i	0	3	-3	/
CCOC(=O)CNC(=O)CSc1nc2cccnc2n1C1CCCCC1	8	7	-16	i	-1	0	8	25
CC(Sc1nnnn1-c1ccccc1)C(=O)Nc1ccc(Cl)cn1 (stereo unspecified)	1	-16	-5	i	0	1	1	-38
COc1ccc(C(C)=O)cc1COC(=O)c1cc(C)nc2ccccc12	7	-6	/	i	5	-6	0	5
N=C(c1ccc([N+](=O)[O-])cc1)N1CCCCC1	-8	-16	/	i	3	2	-6	7
CC(C(=O)NC1CCCCC1)N1C(=O)C2C3C=CC(C3)C2C1=O (stereo unspecified)	-12	-9	-14	i	5	7	0	-6
CCN(CC)c1cc2c(c3c1ccn3C)C1CCC2O1 (stereo unspecified)	/	/	-5	/	4	8	/	-15
CC(=O)C[C@H](O)CC(=O)[C@@H]1OC(=O)CCCCCCCCc2ccccc21	/	/	-7	/	-4	0	/	22
Cc1cccc(N2CCN(C(=O)CCCOc3ccccc3)CC2)c1C	2	11	-15	i	-1	-2	-1	-67
CC(=O)c1cc(C)ccc1OC(=O)c1ccco1	-5	-11	-4	i	0	3	-5	/
Cc1onc(-c2ccccc2)c1C(=O)N/N=C/c1c(F)cccc1Cl	-7	10	-8	/	1	0	-6	2
Fc1ccccc1Cn1cc(C(=S)N2CCOCC2)c2ccccc21	7	4	-20	i	2	-1	-1	6
CC(C)C(=O)N1CCC2(CC1)Oc1ccc(Cl)cc1C(=O)C21CC(c2ccccc2)=NO1 (stereo unspecified)	-5	4	-14	i	-13	-14	-11	-3
O=C1CCN(Cc2ccccc2)C=C1c1ccc(Cl)cc1	/	/	-10	/	4	-3	/	-12
Cc1ccc(C)c(Cn2nnc3c(=O)[nH]c(C(=O)Nc4ccc(F)cc4)nc32)c1	6	17	/	i	11	-5	4	14
COC(=O)c1cccc(Nc2ccc([N+](=O)[O-])cn2)c1	6	-9	-6	i	-2	0	-7	3
CN(C)/C=N/C1=C(C#N)C(c2cccs2)c2ccc3ccccc3c2O1 (stereo unspecified)	12	/	/	/	-17	-14	12	-63
O=C(Cn1ccc2ccccc2c1=O)NCCC(=O)Nc1cccc(Cl)c1	2	-7	-20	i	-1	-1	-5	/
COc1ccc(/C=C/c2nc3sc4c(c3c(=O)o2)CCC4)cc1	/	-1	-9	i	1	2	/	/
O=S(=O)(c1ccc(Br)s1)N1CCN(c2ccc(F)cc2)CC1	15	12	2	i	0	-2	0	3
CCCc1nnc(SCC(=O)N(CC)CC)n1CC1CCCO1 (stereo unspecified)	-7	-3	/	i	0	1	9	3
O=C(NC(=S)N1CCc2ccccc21)c1ccc(Br)o1	12	23	/	i	6	10	-1	18
O=[N+]([O-])c1ccc(N2CCCCC2)cc1N1CCOCC1	0	-2	/	i	11	-4	7	20
CCOc1ccc(S(=O)(=O)NCCC(=O)N2CCN(c3ncccn3)CC2)cc1	/	/	-10	/	0	-1	/	-2
O=C(CNC(=O)c1ccco1)OCC(=O)c1ccc(Cl)cc1Cl	0	-16	-27	i	0	2	0	2
CN(c1ccc(OCC(=O)OCC(=O)c2c(N)n(C)c(=O)n(C)c2=O)cc1)S(=O)(=O)c1ccc2ccccc2c1	-6	-3	/	i	8	5	-6	-7
Cc1cc(C)c(C#N)c(SCC(=O)c2cc(C)n(CCc3ccccc3)c2C)n1	16	-7	-14	i	-6	-11	10	16
O=C(C1CCCCC1)N1CCN(S(=O)(=O)c2cccc([N+](=O)[O-])c2)CC1	11	-5	-7	i	0	-4	-8	0
O=C(NCc1ccco1)C1CCN(C(=O)c2cc3sccc3n2Cc2ccc(Cl)cc2)CC1	-1	7	-10	i	3	-13	-3	/

Source: PubChem BioAssay (several laboratories)

The list is partial; the hit share may differ from the screen's.
